# Marburg entry: Marburg virus entry inhibition. Potency, µM (series often up to 49.2 µM), for inactives: top-dose activity change, negative = inhibition, most hits filed as inhibitors. 18,000 compounds, 6.5% hits. Marburg virus pseudotype entry/binding inhibition, cell-based; control for the full effect not named in the record; many of its hits are not listed in these tables; active means well fitted inhibition curve with a large enough effect; inconclusive means small, poorly fitted or top-dose-only effect; inactive means no such curve, though single readings can be large or run the other way; tested in HEK293 cells; further: luciferase read-out
# LASV entry inh: Lassa virus entry inhibition. Potency, µM (series often up to 49.2 µM), inactives show top-dose activity change, negative = inhibition, hits mostly inhibitors. Lassa virus pseudotyped entry inhibition, cell-based qHTS; control for the full effect not named in the record; many of its hits are not listed in these tables. AID 720533. 18,000 compounds, 4.1% hits; active = well fitted inhibition curve with a large enough effect; inconclusive = small, poorly fitted or top-dose-only effect; inactive = no such curve, though single readings can be large or run the other way; tested in HEK293 cells; further: luciferase read-out
# Active calls of the source: *; ? = inconclusive; / = no result given; & = joins results of further samples; ! = not active in a repeat; [ ] = remark or other dose. On the % scale 0 is the no-effect control and ±100 the full control effect; potency means the concentration at half of the fitted maximal effect. These rows are one share of the data. The share of hits here may be higher or lower than overall.
# Results follow in this order: Marburg entry | LASV entry inh
- CC1=CC(=O)C2=C(C)CC[C@@H]3[C@@H](OC(=O)[C@H]3C)[C@H]12
  -7%[17.8 µM] | -4%[17.8 µM]
- CN1C(C(=O)Nc2ccccn2)=C(O)c2ccccc2S1(=O)=O
  -11%[17.8 µM] | 2%[17.8 µM]
- CCCCCCCCCCCCCCCCOCC(COP(=O)([O-])OCC[N+](C)(C)C)OC (stereo unspecified)
  14%&-21% | 4%&0%
- O=C1Cc2cc(CCN3CCN(c4nsc5ccccc45)CC3)c(Cl)cc2N1
  ? | -16%&-26%
- C[C@@H]1COc2cccc(NCCO)c2S(=O)(=O)N1
  22% | 11%
- CCc1cc(Cl)c(OC)c(C(=O)NC[C@@H]2CCCN2CC)c1O
  4.5µM* | ?
- COC(=O)c1cc(C(=O)OC)n2ccc3cc(OC)c(OC)cc3c12
  52%[activator][8.59 µM] | ?
- O=C(c1ccc(Cn2cnnn2)cc1)N1CCOc2ccc(C(O)C3CCCCC3)cc2C1 (stereo unspecified)
  -25% | ?
- NCCCC[C@H](NC(=O)[C@H](Cc1ccccc1)NC(=O)[C@H](CCCN=C(N)N)NC(=O)[C@@H](N)Cc1ccc(O)cc1)C(N)=O
  15% | -3%
- COc1ccc(-c2nn3ncccc3c2-c2ccnc(Nc3cccc(C(F)(F)F)c3)n2)cc1
  13µM* | ?
- Cc1cc2c(c(-c3ccc(Cl)cc3)c1)OC(CNC(=O)CCC(=O)N(C)C)C2 (stereo unspecified)
  -20% | -6%
- CC(=O)c1ccc(-c2ccc3c4c(ccc3c2)OC(CNC(=O)[C@@H]2CCCN2C(C)=O)C4)s1 (stereo partly specified)
  21% | -4%
- Cc1ccc(CN2[C@@H](CC(C)C)COc3c(Cl)cccc3S2(=O)=O)cc1
  -26% | -8%
- C#C[C@@]1(O)CCC2C3CCc4cc(O)ccc4C3CC[C@@]21C (stereo partly specified)
  ? | ?
- COc1ccc(CNS(=O)(=O)c2ccc(F)cc2Br)cc1
  -5% | /
- COC(=O)N[C@@H](c1cccc(C)c1)[C@]1(C(=O)OC)CCCC1=O
  ? | 11%[8.59 µM]
- NC1CCc2cc(O)c(O)cc2C1 (stereo unspecified)
  22µM*! | 0%&-28%
- CCCCC[C@H](O)/C=C/[C@@H]1[C@H]2C/C(=C/CCCC(=O)O)C[C@H]2C[C@H]1O
  -2%&1%&-9% | 0%&4%&0%
- O=C(c1cccs1)N1C[C@H](O)[C@H](n2cc(C3CC3)nn2)C[C@@H]1c1ccccc1
  -7% | -17%
- CCCCC[C@H](O)/C=C/[C@H]1[C@H](O)CC(=O)[C@@H]1C/C=C\CCCC(=O)O
  15%&-13%&-5% | 10%&4%&-10%
- CCCCC/C=C\C[C@@H](O)/C=C/C=C/C=C\[C@@H](O)CCCC(=O)O
  25% | 4%
- COc1ccc(-c2cc(=O)c3ccccc3[nH]2)cc1
  61%[activator] | 3%
- CCCc1c(-c2ccc(O)cc2)nn(-c2ccc(O)cc2)c1-c1ccc(O)cc1
  -14% | ?
- Oc1ccc2c(c1)OC(c1ccc(O)c(O)c1)C(O)C2 (stereo unspecified)
  -4% | 3%
- C=C(C)C1CC=C(C)C(O)C1 (stereo unspecified)
  1% | -9%
- C[C@H]1CC[C@]2(NC1)O[C@H]1C[C@H]3[C@@H]4CC[C@H]5C[C@@H](O)CC[C@]5(C)[C@H]4CC[C@]3(C)[C@H]1[C@@H]2C
  5% | 10%
- COc1cc(C[C@H](C)N)c(OC)cc1Br
  ? | -16%[107 µM]
- C=CCOC(=O)C1=C(C)N(CC)C(=O)NC1c1ccccc1 (stereo unspecified)
  -5%[8.59 µM] | 5%[8.59 µM]
- COc1ccc(CCN(C)CCCN2CCc3cc(OC)c(OC)cc3CC2=O)cc1OC
  -22%&-3% | 17%&7%
- COc1cc(OC)c(OC)cc1C=O
  8% | -4%

# The final four entries of the section above lead into the next.
# Results follow in this order: Marburg entry | LASV entry inh
- COc1cc(C[C@H](C)N)c(OC)cc1Br
  ? | -16%[107 µM]
- C=CCOC(=O)C1=C(C)N(CC)C(=O)NC1c1ccccc1 (stereo unspecified)
  -5%[8.59 µM] | 5%[8.59 µM]
- COc1ccc(CCN(C)CCCN2CCc3cc(OC)c(OC)cc3CC2=O)cc1OC
  -22%&-3% | 17%&7%
- COc1cc(OC)c(OC)cc1C=O
  8% | -4%
- C[N+](C)(C)CCOC(=O)CBr
  2% | 0%
- COC(=O)[C@@H]1CCCN1C(=O)c1cnn(-c2ncc3c(n2)-c2ccccc2CCC3)c1C1CC1
  -4% | -5%
- O=C(O)/C=C1\CCCc2ccccc2C1O (stereo unspecified)
  6% | -12%
- CN(c1cc2c(c3c1ccn3C)C1CCC2O1)C(C)(C)C (stereo unspecified)
  ? | /
- O=C(O)c1cccnc1C(=O)O
  1%&7% | -12%&-2%
- Cc1ccccc1-c1ccc(CN2C(C(C)C)C(=O)N(Cc3cn(CCC4OCCO4)nn3)CCS2(=O)=O)cc1 (stereo unspecified)
  -44% | -26%
- COc1cccc(CNC(=O)c2c(OC)cc(=O)n3c2CCN(C(=O)c2ccc(Cl)cc2)CC3)c1
  3% | -9%
- CN(C)c1ccc(C(=O)N2CCCC(Cn3cc(C(=O)N4CCCC4)nn3)C2)cc1 (stereo unspecified)
  12% | -4%
- COc1ccc2cc(C#N)c(=O)oc2c1
  7% | 4%
- CNC(=O)[C@H]1O[C@H](n2cnc3c(NCc4cccc(I)c4)nc(Cl)nc32)[C@@H](O)[C@@H]1O
  ? | ?
- NCCC[C@@H](CC(=O)N[C@@H]1CCCC[C@H]1C(=O)N[C@H](CC(=O)N[C@@H](CCC(=O)O)CC(=O)O)Cc1ccccc1)NC(=O)C[C@H](CO)NC(=O)[C@@H]1CNCC[C@H]1N
  -29% | -5%
- C#CCOc1ccc2c(C)cc(=O)oc2c1
  5% | 16%
- C=C(Br)S(=O)(=O)NCc1ccccc1
  ? | /
- CC(=O)OC[C@H]1O[C@H](CC=NO[C@@H](C)CN2CCCc3nc(C)c(C)cc32)C=C[C@@H]1OC(C)=O
  9%[8.59 µM] | -2%[8.59 µM]
- C=C1C2CC[C@@]3(C)C(c4ccoc4)OC(=O)C[C@@]13OC1CC(O)C(C)(C)C(CC(=O)OC)[C@@]12C (stereo partly specified)
  9%&-19% | 1%&5%
- Cc1cc(C)cc(C(=O)N(C)[C@H](Cc2ccc(-c3ccccc3)cc2)C(=O)N[C@@H](Cc2c[nH]c3ccccc23)C(=O)O)c1
  -7%&-8% | 0%&-20%
- CC(=O)Nc1cc([As](=O)(O)O)ccc1O
  14% | -3%
- CC(=O)N[C@H]1C(O[C@@H]2O[C@H](C[C@@H](O)[C@H]3O[C@@H](N4CCC(=O)NC4=O)[C@H](O)[C@@H]3O)[C@H](O)[C@H](O)[C@H]2NC(=O)/C=C/CCCCCCCCCCC(C)C)OC(CO)[C@@H](O)[C@@H]1O (stereo partly specified)
  4.5µM* | ?
- COc1ccccc1CCNc1ncnc2sc(C(=O)N3CCCCC3)c(C)c12
  3% | -9%
- COC(=O)N[C@@H](c1ccc2ccccc2c1)C(C(C)=O)C(=O)OC (stereo partly specified)
  -16%[8.59 µM] | 16%[8.59 µM]
- CCn1c(-c2cccc(OC)c2)nc2cc(NC(C)=O)cc(C(=O)N3CCC[C@H]3C(=O)OC)c21
  -7% | 1%
- O=C1c2ccccc2C(=O)C1c1ccc(Br)cc1
  28% | -6%
- O=C(O)CCCC/C=C(\c1ccccc1)c1cccnc1
  19% | 11%
- CC1=C(/C=C/C(C)=C/C=C/C(C)=C/C=C/C=C(C)/C=C/C=C(C)/C=C/C2=C(C)CCCC2(C)C)C(C)(C)CCC1
  3% | 10%
- COC(=O)[C@H](CCCN=C(N)N)NC(=O)CCCc1c(-c2ccccc2)[nH]c2c(F)cc(F)cc12
  27% | 4%
- O=C(c1cccnc1)C1CCCN(Cc2ccc3c(c2)CN(C(=O)c2ccc4[nH]ccc4c2)CCO3)C1 (stereo unspecified)
  ? | -21%
- CC(=O)[C@H](CC(C)C)NC(=O)[C@@H](CC(C)C)NC(=O)[C@H](CC(C)C)NC(=O)OCc1ccccc1
  -87% | 0.32µM*
- COc1cc2c(cc1OC)C1CCC3=C([C@H](C)OC3=O)N1CC2 (stereo partly specified)
  -4% | 2%
- CCCCCCCCCCC/C=C\C/C=C\CCCC(=O)O
  17%&4% | -7%&-6%
- CC(=O)OC[C@H]1O[C@H](C#CC(C)(C)C)C=C[C@H]1OC(C)=O
  16%&10%[8.59 µM] | 20%&-5%[8.59 µM]
- CC(=O)O[C@H]1C[C@H]2CC[C@@H]3[C@H]4C[C@@H]([N+]5(C)CCCCC5)[C@@H](OC(C)=O)[C@]4(C)CC[C@@H]3[C@@]2(C)C[C@@H]1[N+]1(C)CCCCC1
  3% | 2%
- CNCCC=C1c2ccccc2CCc2ccccc21
  10µM* | 32µM*
- Cc1[nH]c2ccccc2c1CN(C)C
  -22% | 23%
- CCN1C[C@@]2(COC)CCC(OC)[C@]34C5C[C@]6(O)[C@@H](OC)C[C@](OC(C)=O)(C([C@H](OC)C23)[C@H]14)C5[C@H]6OC(=O)c1ccc(OC)cc1 (stereo partly specified)
  -27% | 0%
- COc1ccc(-c2coc3cc(OC)cc(OC)c3c2=O)cc1
  30% | 22%
- CC(=CC[Si](C)(C)C)CCC=O
  -25%[8.59 µM] | /
- CC(C)[C@@]1(NC(=O)[C@@H]2C[C@H]3c4cccc5[nH]cc(c45)C[C@@H]3N(C)C2)O[C@]2(O)[C@H]3CCCN3C(=O)CN2C1=O
  ? | -12%[17.8 µM]
- C#CCN(Cc1ccc(OCCC)cc1)S(=O)(=O)c1ccc(Br)cc1F
  -21% | -27%
- O=S(=O)(NCc1nnc2n1CCN(Cc1ccccc1Cl)CC2)c1ccccc1
  -23% | 2%
- COc1ccc(-c2cc(-c3cn[nH]c3-c3ccccn3)ccn2)cc1
  39%[activator] | 93%[activator]
- C[C@H]1[C@@H](c2ccccc2)Oc2c(Cl)cccc2S(=O)(=O)N1C
  -7% | -25%
- COc1c2c(cc3c1C(NC(N)=O)[N+](C)(C)CC3)OCO2 (stereo unspecified)
  20% | 0%
- COc1cc(OC)c(OC)cc1CN1CCCC(c2nc(C)ncc2-c2ccc(F)cc2)C1 (stereo unspecified)
  11µM* | -13%
- CC[C@H](C)[C@H](NC(=O)[C@H](Cc1ccc(O)cc1)NC(=O)CNC(=O)[C@@H]1CCCN1C(=O)[C@H](CC(=O)O)NC(=O)[C@@H](N)CS)C(=O)NCC(=O)N[C@@H](CO)C(=O)N[C@@H](CCCN=C(N)N)C(N)=O
  2% | 1%
- COC(=O)CC1C(C)(C)C(O)C2CC3=C4CC(O)OC(c5ccoc5)[C@]4(C)CCC3[C@@]1(C)C2=O (stereo partly specified)
  -17% | -10%
- Cc1ccccc1-c1cc(Nc2ccc(F)cc2)ncn1
  11% | -21%
- Cc1ccc(NC(=O)O[C@@H]2C(=O)c3cc(Br)ccc3O[C@H]2c2ccc3c(c2)OCO3)cc1Br
  6% | 11%
- c1ccc2c(c1)[nH]c1cnccc12
  12% | 16%
- Cc1cccc(CNC(=O)c2cnn(-c3nccc(-c4ccccc4C(F)(F)F)n3)c2C)n1
  -14% | 0%
- COc1ccc2c(c1)O[C@@H](c1ccc3c(c1)OCO3)[C@H](OC(=O)NCc1ccco1)C2=O
  25% | -9%
- CC1C(O)CC2C(C(=O)O)=CO[C@@H](O[C@H]3OC(CO)C(O)C(O)C3O)C21 (stereo partly specified)
  8% | 0%
- CCC(=O)O[C@H]1[C@H](O[C@@H]2[C@@H](C)[C@H](O[C@H]3C[C@@](C)(OC)[C@@H](O)[C@H](C)O3)[C@@H](C)C(=O)O[C@H](CC)[C@@](C)(O)[C@H](O)[C@@H](C)C(=O)[C@H](C)C[C@@]2(C)O)O[C@H](C)C[C@@H]1N(C)C
  10µM* | 25µM*
- Clc1ccc2nc(-c3ccccc3)[nH]c2c1
  17% | 8%
- COC(=O)C1=C(C(=O)OC)[C@@H]2Nc3ccccc3[C@@]23C[C@@H](C(=O)OC)N(C(=O)NC(C)(C)C)C3=N1
  2%[8.59 µM] | 5%[8.59 µM]
- O=c1nc2ccccc2c2n1C[C@H](CN1CCN(c3ccccc3)CC1)N2
  0% | -1%
- C=CCCOP1(=O)O[C@H](C=C)C[C@H](C=C)O1 (stereo partly specified)
  -10% | -13%
- CC[C@H](C)[C@H](NC(=O)[C@H](CC(=O)O)NC(=O)[C@H](CC(C)C)NC(=O)[C@H](NC(C)=O)C(c1ccccc1)c1ccccc1)C(=O)N[C@H](C(=O)N[C@@H](Cc1c[nH]c2ccccc12)C(=O)O)[C@@H](C)CC
  1% | 0%
- COc1ccc(CN2CCOc3ccc(C(O)c4cccnc4)cc3C2)c(F)c1 (stereo unspecified)
  -28% | 2%
- COc1cc(C2c3cc4c(cc3C(O)C3COC(=O)C23)OCO4)cc(OC)c1O (stereo unspecified)
  ? | ?
- C=C1[C@@H](C)[C@H]2[C@H](Cc3ccccc3)NC(=O)[C@]23[C@H](OC(C)=O)/C=C/[C@](C)(O)C(=O)[C@@H](C)C/C=C/[C@H]3[C@@H]1O
  ? | ?
- COc1cccc2c1CCC1CC(=O)CC[C@@]21C (stereo partly specified)
  14% | 3%

# Single values from the results shown.
# LASV entry inh result of CCCCC[C@H](O)/C=C/[C@H]1[C@H](O)CC(=O)[C@@H]1C/C=C\CCCC(=O)O → 10%&4%&-10%
# LASV entry inh result of CC(=O)c1ccc(-c2ccc3c4c(ccc3c2)OC(CNC(=O)[C@@H]2CCCN2C(C)=O)C4)s1 (stereo partly specified) → -4%

# Assay outcomes as filed in PubChem BioAssay.
